# MbtI inh: MbtI salicylate synthase inhibitors, primary screen, biochemical, fluorescence intensity; P9WFX0; purified MbtI enzyme, fluorescence intensity read-out; inhibition, %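 (about 17 µg/mL by stock and volumes)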; hit rate 0.89% among 100,000;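 active = above 50% in both replicates, above 80% if mildly self-fluorescent; inactive = the rest, strongly fluorescent compounds included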;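 note: 0% = mean of negative and 100% = mean of positive controls; one replicate is shown; some compounds called inactive have numbers as strong as hits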
# Target sequence (P9WFX0 whole entry, looked up): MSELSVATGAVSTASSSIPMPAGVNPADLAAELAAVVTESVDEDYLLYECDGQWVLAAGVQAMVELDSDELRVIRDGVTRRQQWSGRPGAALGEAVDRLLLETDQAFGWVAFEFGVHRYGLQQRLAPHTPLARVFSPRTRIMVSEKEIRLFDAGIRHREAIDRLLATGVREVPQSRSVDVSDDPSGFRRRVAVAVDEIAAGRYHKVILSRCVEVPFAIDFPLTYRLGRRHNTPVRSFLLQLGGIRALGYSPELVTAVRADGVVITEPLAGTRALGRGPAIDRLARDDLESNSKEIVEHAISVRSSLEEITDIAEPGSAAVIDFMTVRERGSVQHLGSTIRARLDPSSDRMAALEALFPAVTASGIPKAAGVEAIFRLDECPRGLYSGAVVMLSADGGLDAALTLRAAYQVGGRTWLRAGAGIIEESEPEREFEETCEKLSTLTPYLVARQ
# MenB inh: M. tuberculosis MenB inhibitors, primary screen, biochemical, absorbance; 1,4-dihydroxy-2-naphthoyl-CoA synthase (Mycobacterium tuberculosis (strain ATCC 25618 / …; MenB enzyme assay, absorbance read-out; some hits fall short of the stated cut; inhibition, %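 (about 12 µg/mL by stock and volumes)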; hit rate 0.43% among 100,000;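 active = mean of two replicates above 30%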;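 note: 0% = no compound and 100% = wells with inactive enzyme; the first replicate is given; strong numbers were not always called active; inactives centre near -10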
# Polio RdRp inh: poliovirus RdRp elongation inhibitors, primary screen, biochemical, fluorescence polarization, total intensity | Genome polyprotein (Poliovirus type 1 (strain Mahoney)), P03300 | poliovirus polymerase elongation; stronger effect = lower value | % elongation, % (compound at 16.7 µg/mL) | hit rate 0.66% among 150,000 | AID 588519, 2011; in the data active = % elongation below about 90%; note: some results filed as inactive read as strong as hits
# Target sequence (P03300 1749-2209 limits assumed): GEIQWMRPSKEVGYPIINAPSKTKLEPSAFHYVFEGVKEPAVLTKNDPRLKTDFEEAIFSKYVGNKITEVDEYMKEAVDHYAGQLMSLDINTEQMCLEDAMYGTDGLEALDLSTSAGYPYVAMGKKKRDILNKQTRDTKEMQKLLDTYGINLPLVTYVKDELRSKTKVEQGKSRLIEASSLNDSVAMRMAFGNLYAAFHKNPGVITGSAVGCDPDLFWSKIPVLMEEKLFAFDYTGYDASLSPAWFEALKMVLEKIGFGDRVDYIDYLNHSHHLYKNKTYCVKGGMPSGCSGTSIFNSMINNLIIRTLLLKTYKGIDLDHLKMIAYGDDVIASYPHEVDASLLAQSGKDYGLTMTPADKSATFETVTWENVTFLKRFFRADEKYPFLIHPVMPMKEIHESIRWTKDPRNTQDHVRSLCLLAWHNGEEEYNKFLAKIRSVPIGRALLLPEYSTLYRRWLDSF
# Polio RdRp inh intensity: second read-out of Polio RdRp inh, no call of its own (marks repeat the call); % elongation; measured here: total intensity read-out; formula for this scale not given here;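 total fluorescence in place of polarization; lower means less elongation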
# * = called active by the depositor; i = inactive; . = not tested or not shown; & = joins results of further samples. An unsorted share of the library. About 1.7% of those tested had a hit in this group.
SMILES,MbtI inh,MenB inh,Polio RdRp inh,Polio RdRp inh intensity
O=P1(NCCCl)OCCCN1CCCl (configuration not stated),-6.3,-1.9,101.0,104.0
N#CCOC(=O)C1COc2ccccc2O1 (configuration not stated),1.9,-2.0,98.0,100.0
CCOc1ccc(-c2nc3c(c(SCC(=O)OC)n2)Cc2cccc(OCC)c2O3)cc1,-1.9,3.7,100.0,103.0
O=C1CCC(=O)N1Cc1c(Cl)cccc1Cl,-4.3,.,100.0,101.0
Cc1ccc(CN2C(=O)c3ccccc3NC2c2ccccn2)cc1 (configuration not stated),102.5,-24.6,100.0,92.0
c1ccc(C2Oc3ccccc3C3CC(c4cccnc4)=NN32)cc1 (configuration not stated),-7.6,-23.7,100.0,103.0
Clc1ccc(C2N=C(c3cnccn3)NN2)cc1 (configuration not stated),-8.1,-9.7,103.0,101.0
O=C(Nc1ccc(N2CCOCC2)cc1)[C@H](Cc1ccccc1)NS(=O)(=O)c1ccc2c(c1)OCCO2,11.4,-13.5,108.0,110.0
Cc1ccc(CC(=O)N2CCN(C(=O)C3CCCO3)CC2)cc1 (configuration not stated),-18.1,-13.3,101.0,101.0
Cc1cccc2sc(NS(=O)(=O)c3ccc(C(=O)O)cc3)nc12,2.2,-10.2,101.0,103.0
Cc1ccc(Cn2cccc(C(=O)N(C)c3ccccc3)c2=O)cc1,20.9,-3.9,102.0,105.0
CC1CC(C)(C)OC(C(C)(C)CN(C)C)O1 (configuration not stated),.,2.0,104.0,112.0
O=C(Nc1ccc(N2CCOCC2)cc1)C1c2ccccc2Oc2ccccc21,-1.4,-16.8,107.0,92.0
O=C(O)CSc1sc(=S)sc1SCC(=O)O,25.3,-126.5,102.0,101.0
COc1cc(C(=O)Nc2nnc(CC(=O)N3CCOCC3)s2)cc(OC)c1OC,-7.5,-1.9,101.0,102.0
Cc1ccc(C)c(S(=O)(=O)N2CCN(C(=O)CCC(=O)Nc3ccc(OC(F)(F)F)cc3)CC2)c1,-12.0,-24.3,101.0,102.0
O=C(Cc1ccc(Cl)cc1)NCCS(=O)(=O)N1CCN(c2ccccc2)CC1,1.9,-6.1,102.0,111.0
O=C(C1CCC(CNS(=O)(=O)c2cccc3cccnc23)CC1)N1CCc2ccccc21 (configuration not stated),-6.1,-20.1,102.0,108.0
CSC(=NC(C)(C)C)Nc1ccccc1Cl,-7.1,-10.8,105.0,106.0
COc1ccc(S(=O)(=O)N2CCCCCC2)cc1C(=O)OCC(=O)N1CC(C)OC(C)C1 (configuration not stated),-3.9,1.5,105.0,107.0
O=C(c1ccc2c(c1)OCO2)N1CCCC1,.,-6.2,108.0,113.0
COC(=O)C1C(=O)C2=C(CC1C)Nc1ccccc1NC2c1ccccc1C (configuration not stated),.,-17.8,102.0,97.0
CCOC(=O)C1(O)c2ccccc2-c2ccccc21,.,-12.1,106.0,110.0
N#Cc1c(SC2CCCC2)nsc1SC1CCCC1,.,-9.0,97.0,96.0
O=C(O)CCn1cccc1,-0.2,-14.1,102.0,100.0
Cc1cccc(CN(C(=O)Nc2ccc(Cl)c(Cl)c2)c2ccccn2)c1,-10.6,-2.8,103.0,106.0
Cc1ccc(-c2nonc2NC(=O)c2ccccc2)cc1,-4.8,8.5,101.0,102.0
CCc1cc(SCC(=O)C(C#N)c2nc(C)cs2)n2c(nc3ccccc32)c1C#N (configuration not stated),-10.8,-24.6,102.0,115.0
Cc1nc2c(C(=O)NCc3ccc4c(c3)OCO4)cnn2c(C)c1Cc1c(F)cccc1Cl,45.2,-7.1,102.0,106.0
COc1ccc2nc3c(cc2c1)c(=O)n(C)c(=O)n3C,-23.6,-10.3,100.0,109.0
CN1CN=C2SC3(COC(c4ccc(N(C)C)cc4)OC3)C(=O)N2C1 (configuration not stated),-12.2,-19.6,105.0,108.0
CCc1c(C)sc(NC(=O)CC#N)c1C#N,43.8,-0.6,96.0,126.0
NC(=O)CCn1c2ccccc2c2ccccc21,77.6,-53.5,103.0,104.0
COc1cccc(C(=O)Nc2ncc3c(n2)CC(C)(C)CC3=O)c1,13.5,-20.6,102.0,99.0
COC(=O)c1ccc(-c2nnc(-c3ccc(N(C)C)cc3)o2)cc1,-25.2,-14.1,112.0,137.0
CCc1cc(C(=O)N(CC)Cc2ccncc2)cs1,-10.7,4.3,101.0,104.0
CCCCn1c(SC(F)F)nc2ccccc2c1=O,-5.7,-25.0,108.0,112.0
COCCN1C(=S)NC2c3ccccc3OC13CCCC23 (configuration not stated),3.4,-13.3,98.0,92.0
CCOC(=O)c1c(-c2ccc(Cl)cc2)nn2c1NCN(C1CCCCC1)C2,-1.3,-1.2,101.0,104.0
OC(COCc1ccco1)CN1CCc2ccccc2C1 (configuration not stated),-9.2,.,100.0,108.0
CCCc1ccc(OCc2ccc(C(=O)n3cc(Cl)cn3)o2)cc1,-3.7,14.6,101.0,103.0
CC(C)C(=O)N(Cc1ccccc1)Cc1nc2ccccc2c(=O)[nH]1,-2.6,-32.5,102.0,100.0
N#Cc1cc2c(nc1SCC(N)=O)CCCC2,.,2.1,104.0,107.0
Cc1cc(Sc2nnc(C)s2)c2ccccc2n1,.,0.8,86.0*,83.0*
CCc1ccc(C2C(C(=O)OC)=C(C)NC(C)=C2C(=O)OC)cc1,43.5,-31.0,103.0,102.0
N#C/C(=C\c1ccc(-c2ccccc2)o1)C(=O)Nc1ccccc1,-11.4,-95.4,90.0,153.0
OCCN1CCN(CC/C=C2/c3ccccc3Sc3ccc(C(F)(F)F)cc32)CC1,-13.6,5.3,98.0,100.0
O=C(NN1CCOCC1)c1cccc2c1C(=O)N(Cc1cccnc1)C2,-6.8,8.3,101.0,104.0
CCOc1cccc(C(=O)N2CCOCC2)c1,-9.0,-3.0,101.0,100.0
O=C(CSc1nc2ccccc2n1-c1ccccc1)N1CCOCC1,-15.2,.,103.0,106.0

# Single records (already shown). Order of screens: MbtI inh, MenB inh, Polio RdRp inh, Polio RdRp inh intensity
# Listed for `OC(COCc1ccco1)CN1CCc2ccccc2C1` (configuration not stated) : -9.2, ., 100.0, 108.0
# Listed for `CCc1cc(C(=O)N(CC)Cc2ccncc2)cs1` : -10.7, 4.3, 101.0, 104.0

# Next part
SMILES,MbtI inh,MenB inh,Polio RdRp inh,Polio RdRp inh intensity
Cc1ccc(-c2nn(-c3ccccc3)cc2/C=C\C(N)=O)cc1,-3.1,.,101.0,98.0
CCN(CC)Cc1c(O)ccc2cc(-c3nc4ccccc4s3)c(=O)oc12,12.5,-272.9,68.0,193.0
Cc1[nH]c(=O)c(C#N)c(C)c1CCC(=O)N1CCCSC1=Nc1ccccc1C(C)C,-24.9,-20.6,103.0,107.0
CN1/C(=C(\C#N)c2nc(C#N)c(C#N)nc2Cl)Nc2ccccc21,19.1,-5.3,108.0,123.0
CCOC(=O)c1ccc(N(C)S(=O)(=O)c2ccc(OC)cc2)cc1,-17.8,-15.5,102.0,104.0
Cc1nnc(NC(=O)C2CC(=O)N(c3ccc(C)c(Cl)c3)C2)s1 (configuration not stated),31.5,21.2,103.0,100.0
COc1ccccc1Nc1cccccc1=O,7.4,.,104.0,99.0
COC(=O)[C@@H]1[C@H]2C[C@H]3c4[nH]c5ccccc5c4CCN3C[C@@H]2CC[C@@H]1O,-4.8&-25.6,-2.6&-10.1,104.0&102.0&101.0,102.0&100.0&101.0
COc1cccc(N=Nc2ccc3cccnc3c2O)c1,-2.0,-58.9,137.0,144.0
COCC(=O)N1CCN(c2ccc(F)cc2)CC1,-18.5,-29.7,101.0,103.0
CC(=O)NN1C(=O)c2ccccc2NC1c1ccccc1 (configuration not stated),i,0.3,103.0,107.0
Cc1csc2sc(-c3ccnc(SCc4ccccc4)n3)c(C)c12,-12.2,-5.7,107.0,113.0
CCCCS(=O)(=O)Nc1ccccc1OCC,-17.5,-5.0,103.0,102.0
CN(C(=O)CSc1nnc2ccccn12)c1ccccc1,19.8,-15.1,96.0,99.0
O=C(COC(=O)CC12CC3CC(CC(C3)C1)C2)NCc1ccc(F)cc1,-12.0,.,100.0,106.0
Cc1ccc(-c2cc(C(F)F)nc(N(C)Cc3ccccc3)n2)cc1,48.4,1.1,100.0,103.0
O=C(Cc1ccccc1)OCc1ccc(Cl)cc1,-10.3,.,103.0,108.0
N#CC1(C#N)C(C(=O)C23CC4CC(CC(C4)C2)C3)C12CCOCC2 (configuration not stated),-1.0,-15.2,101.0,101.0
O=c1c(NCCc2ccccc2)nccn1-c1ccccc1,-42.2,-14.3,101.0,102.0
CCCCC(CC)CN1CC(O)=C(c2nc3ccccc3s2)C1=N (configuration not stated),-49.6,5.3,103.0,101.0
CC1=CC(C)C(C2OCCC(C)O2)C(C)C1 (configuration not stated),0.5,-18.8,101.0,104.0
CC(NC(=S)NC1CCCCC1)c1ccncc1 (configuration not stated),-6.0,-2.3,100.0,103.0
COc1ccc(/C=C/C(=O)NCCCN2CCCC2)cc1,5.8,-9.8,100.0,102.0
NC(=O)c1c(NC(=O)CN2CCCC2)sc2c1CCCC2,16.8,-19.9,100.0,100.0
CCCC(=O)Nc1ccc(-c2cn3cccnc3n2)cc1,104.9,-17.3,100.0,100.0

# Entries shown so far containing a thiophene ring, fused or not (four):
SMILES,MbtI inh,MenB inh,Polio RdRp inh,Polio RdRp inh intensity
CCc1c(C)sc(NC(=O)CC#N)c1C#N,43.8,-0.6,96.0,126.0
CCc1cc(C(=O)N(CC)Cc2ccncc2)cs1,-10.7,4.3,101.0,104.0
Cc1csc2sc(-c3ccnc(SCc4ccccc4)n3)c(C)c12,-12.2,-5.7,107.0,113.0
NC(=O)c1c(NC(=O)CN2CCCC2)sc2c1CCCC2,16.8,-19.9,100.0,100.0

# (further entries)
SMILES,MbtI inh,MenB inh,Polio RdRp inh,Polio RdRp inh intensity
CN1C(=O)c2ccc(NC(=O)/C=C/c3ccc(Br)o3)cc2C1=O,-8.3,9.2,103.0,107.0
O=C(O)Cc1coc(-c2ccccc2)n1,9.8,2.0,103.0,101.0
O=C(NCCc1ccsc1)c1cc2c(Cl)nc3ccccc3c2s1,20.4,-28.9,103.0,106.0
O=c1ccc2cc(S(=O)(=O)NC3CCCCC3)ccc2[nH]1,-8.6,-15.1,100.0,100.0
COC(=O)COc1ccc2c(C)cc(=O)oc2c1,i,-26.6,102.0,102.0
CC1(C(=O)N2CCCC2)CCC(=O)N1CCc1ccco1 (configuration not stated),0.3,-17.7,103.0,104.0
c1ccc(C2CCN(c3ncnc4c3nc3n4CCCCC3)C2)cc1 (configuration not stated),-18.6,-8.4,102.0,102.0
CC(SCc1nc2sc3c(c2c(=O)[nH]1)CCCC3)C(=O)NCc1ccco1 (configuration not stated),18.4,-20.0,120.0,134.0
CCOC(=O)C1CCN(C(=O)CN2C(=O)c3cccnc3Oc3ccccc32)CC1,-13.1,-9.4,106.0,102.0
O=C(O)C(Cc1ccccc1)P(=O)(c1ccccc1)c1ccccc1 (configuration not stated),.,-11.3,102.0,95.0
O=C(NCc1ccc2c(c1)OCO2)C1CC(c2cccc(Br)c2)=NO1 (configuration not stated),0.4,3.2,100.0,100.0
Cc1cc(C)n(C(=O)CCCC(=O)O)n1,-23.4,-3.4,99.0,101.0
COC(=O)/C=C1\SC(=Nc2ccc(C)cc2)NC1=O,3.2,-9.6,101.0,100.0
COc1cc(C)cc(CN2CCN(S(=O)(=O)c3ccccc3C#N)CC2)c1O,-6.6,-41.6,101.0,100.0
O=C(CCN1C(=O)c2ccccc2C1=O)N1CCCC1,-5.2,-6.4,101.0,103.0
NC(=S)N1CCC(c2ccccc2)=N1,23.1,-17.4,96.0,98.0
O=C(NC1CCCCNC1=O)c1ccc2nsnc2c1 (configuration not stated),6.2,-6.6,102.0,104.0
CC(C(=O)N1CCCC1)N(c1ccccc1)S(C)(=O)=O (configuration not stated),.,-8.0,101.0,110.0
NS(=O)(=O)c1ccc(CNC(=O)c2cccc3cccnc23)cc1,13.6,-28.5,103.0,107.0
CC1CCc2c(sc3nc(NN)n(C)c(=O)c23)C1 (configuration not stated),-2.4,-25.4,101.0,102.0
N#Cc1c(NC(=O)COc2ncnc3ccccc23)sc2c1CCC2,-3.5,-6.2,108.0,118.0
Cn1c(SC(F)F)nnc1-c1ccc2c(c1)OCO2,-16.2,2.6,100.0,104.0
CCC(=O)Nc1ccccc1-c1nnn(CC(=O)N2c3ccccc3CC2C)n1 (configuration not stated),-0.9,23.7,101.0,102.0
C=CCNc1nc(Cl)nc(NCC(=O)OCC)n1,.,-16.0,108.0,113.0
Cc1ccc(C2C3=C(CCCC3=O)N(C)C3=C2C(=O)CCC3)cc1,10.8,-90.3,103.0,104.0
Cc1nc2ccccc2n1CO,-10.5,.,104.0,100.0
O=C(CN1C(=O)CSc2ccccc21)OCCCn1c(=O)[nH]c2ccccc21,-5.1,-3.7,105.0,110.0

# Screening data from PubChem.
